SRC2 TRFRET art: flags TR-FRET format artefacts in PPARgamma SRC-2 recruitment agonist screen | TR-FRET ratio at 8 µM | AID 1049 | actives 0.4% (n = 200,000) | TR-FRET artefact counter-screen; stronger effect = higher value; in the data active means TR-FRET ratio above about 2000; further: inactives centre near 1500
S1P3 antagonist: antagonists of human S1P3 receptor. CHO S1P3 NFAT-BLA reporter, FRET fluorescence, antagonist mode. inhibition, % at 4.98 µM. actives 0.27% (n = 170,000). AID 485;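 active means inhibition above the plate cutoff, the mean inhibition of test wells on that plate plus 3 SD, cut at about 28% in these data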;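 further: cells challenged with S1P at its EC80 of 0.8 µM; blue over green emission ratio from cleaved BLA substrate after 4 h stimulation; 0% = S1P-stimulated wells and 100% = unstimulated DMSO-only wells; some compounds past the cut are filed as inactive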
Target sequence (Q99500 whole entry, looked up): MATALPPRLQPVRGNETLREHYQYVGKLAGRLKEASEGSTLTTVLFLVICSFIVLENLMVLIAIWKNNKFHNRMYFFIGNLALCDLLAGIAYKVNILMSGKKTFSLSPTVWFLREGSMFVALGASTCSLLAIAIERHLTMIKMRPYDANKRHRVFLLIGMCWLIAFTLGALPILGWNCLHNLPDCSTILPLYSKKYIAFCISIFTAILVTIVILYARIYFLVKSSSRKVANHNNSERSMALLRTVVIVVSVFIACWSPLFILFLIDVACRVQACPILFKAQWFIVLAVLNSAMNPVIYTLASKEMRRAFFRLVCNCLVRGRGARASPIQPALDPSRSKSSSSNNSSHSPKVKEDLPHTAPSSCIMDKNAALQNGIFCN
ROMK primary: human ROMK K+ channel modulation, primary screen. AID 1918. actives 2% (n = 130,000). B-score at 10 µM. P48048. Tet-inducible ROMK, thallium flux fluorescence; actives lie on both sides;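 active means signal ratio slope over the read window, or its plate-corrected B-score, at least 3 SD from the plate mean, either direction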;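 further: B-score of the F/F0 ratio slope over 7 to 12 s after thallium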
Target sequence (P48048 whole entry, looked up): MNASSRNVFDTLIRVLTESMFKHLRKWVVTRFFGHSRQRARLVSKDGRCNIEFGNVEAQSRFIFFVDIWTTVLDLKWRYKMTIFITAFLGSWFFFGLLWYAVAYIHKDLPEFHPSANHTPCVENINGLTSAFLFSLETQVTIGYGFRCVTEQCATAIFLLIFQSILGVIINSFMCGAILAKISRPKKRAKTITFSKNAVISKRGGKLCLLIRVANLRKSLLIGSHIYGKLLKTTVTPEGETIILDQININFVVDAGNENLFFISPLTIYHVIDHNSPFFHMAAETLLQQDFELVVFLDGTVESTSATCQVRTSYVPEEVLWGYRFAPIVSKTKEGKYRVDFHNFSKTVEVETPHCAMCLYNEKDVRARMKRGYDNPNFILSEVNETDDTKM
PPARg SRC1 recr: promotes SRC-1 coactivator recruitment by human PPARgamma. P37231. PPARgamma-SRC-1 coactivator recruitment biochemical assay. activation, % at 8 µM. actives 0.41% (n = 200,000). AID 631; in the data active means activation above about 19%;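 further: 0% = DMSO and 100% = reference agonist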
Diaphorase inh: counter-screen for diaphorase-based assays: diaphorase inhibitors and chemical oxidizers | actives 0.69% (n = 190,000) | diaphorase resazurin-to-resorufin fluorescence, NADH, 16 min; bacterial (C. kluyveri) enzyme, not human | inhibition, % at 20 µM;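 active means primary screen inhibition at 20 µM above a set limit, cut at about 50% in these data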;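 further: plate controls were DMSO with full reaction for no effect and wells lacking NADH for full effect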
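controls = No-NADH positive control and DMSO neutral control | system = Clostridium kluyveri diaphorase enzyme | timing = reaction incubation of 16 min at room temperature | signal = resorufin fluorescence 544/590 nm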
PPARg SRC2 recr: PPARgamma-driven SRC-2 recruitment agonism. P37231. PPARgamma LBD-SRC-2 recruitment, biochemical. activation, % at 8 µM. actives 0.34% (n = 200,000). AID 1032; in the data active means activation above about 22%;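 further: 0% = vehicle and 100% = reference agonist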
G6PDH counter: L. mesenteroides G6PDH inhibition counter-screen. Purified L. mesenteroides G6PDH, diaphorase/resazurin coupled fluorescence, 45 min. inhibition, % at 5 µM. actives 0.12% (n = 200,000); in the data active means inhibition above about 50%
PPARg SRC-3 ag: PPARgamma-driven SRC-3 recruitment agonism; biochemical PPARgamma/SRC-3 coactivator recruitment assay; activation, % at 8 µM; actives 0.26% (n = 200,000); in the data active means activation above about 23%;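 further: 0% = DMSO and 100% = reference agonist; some compounds past the cut are filed as inactive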
Numbers without * were called inactive; . = no result given. A portion of the library, so the mix of outcomes need not match the whole.

SMILES	SRC2 TRFRET art	S1P3 antagonist	ROMK primary	PPARg SRC1 recr	Diaphorase inh	PPARg SRC2 recr	G6PDH counter	PPARg SRC-3 ag
COc1ccc(OCC(=O)N/N=C/c2ccc(O[C@@H]3O[C@H](CO)[C@@H](O)[C@H](O)[C@H]3O)cc2)cc1	1411	.	.	-5	5	-2	-1	-11
Nc1c(C(=O)NCC2CCCO2)c2nc3ccccc3nc2n1-c1ccccc1 (stereo unspecified)	1523	16	-0.11	0	38	6	6	-5
O=C(N/N=C/c1ccc(O)c(O)c1)c1ccc(CSc2cccc3cccnc23)cc1	1465	.	.	0	33	-2	1	9
CCCCN1C2=C(C(=O)CCC2)C(c2ccc(Cl)c(Cl)c2)C2=C1c1ccccc1C2=O (stereo unspecified)	1343	.	.	-5	22	1	14	-3
NS(=O)(=O)c1ccc(CCNC(=O)CSc2ccccc2)cc1	1441	.	0.47	7	5	9	1	5
CCC(=O)NC(=S)Nc1ccc(S(=O)(=O)NC(C)=O)cc1	1515	.	.	6	10	15	7	-6
CCOc1ccc2nc(SCC)[nH]c2c1	1623	.	.	-10	-5	15	9	4
O=C(CNS(=O)(=O)c1ccc(Br)cc1)N1CCOCC1	1483	.	.	-3	7	2	6	5
CCOc1ccc(N2CC(C(=O)NC(C)C)CC2=O)cc1 (stereo unspecified)	1434	9	0.26	1	1	2	6	-4
O=[N+]([O-])c1ccc(N/N=C\c2cccn2-c2ccccc2)nc1	1571	.	-2.1	-1	24	4	2	-2
COc1ccc2sc3c(=O)[nH]c4ccccc4c3c2c1	1611	.	-0.19	145*	8	1	4	8
CC(=O)Oc1c(S(=O)(=O)c2ccc(C)cc2)c(C)nn1C(C)(C)C	1446	5	-0.35	4	16	5	0	4
Cc1sc(CO)c(Sc2ccccc2)c1C(=O)O	1575	-27	0.57	4	7	0	7	0
CC(C)NS(=O)(=O)c1ccc(NC(=S)NC(=O)c2ccc(-c3ccccc3)cc2)cc1	1687	.	0.18	7	11	8	13	13
Cc1ccc2nc(CSc3nc(C)cc(C)c3C#N)[nH]c2c1	1645	.	-0.045	7	15	9	7	7
COc1cc(NS(C)(=O)=O)c(OC)cc1NC(=O)c1cccc(F)c1	1368	6	.	6	16	3	4	-7
O=C(O)C1CCN(S(=O)(=O)c2cccnc2)CC1	1863	14	.	9	5	2	-3	-2
CC(C)=CCc1c(C)nc2ccccc2c1C(=O)O	1480	-8	0.54	1	0	0	4	4
CCC(C)(C)NC(=O)CC(c1ccc(OC)cc1)n1cccc1 (stereo unspecified)	1517	-6	0.73	0	13	6	6	-2
O=S(=O)(c1cc(-c2nc3ccccc3s2)ccc1Cl)N1CCOCC1	1472	.	.	3	-2	6	5	-11
Cc1ccccc1OCC(=O)NNC(=O)Nc1ccc(Cl)cc1	1552	.	.	2	16	4	8	10
CS(=O)(=O)N1N=C(c2ccc(Br)cc2)CC1c1ccc2c(c1)OCO2 (stereo unspecified)	1649	.	.	1	16	9	10	15
Cc1cc(C)c(S(=O)(=O)NCC2CCC(C(=O)NCc3ccc4c(c3)OCO4)CC2)c(C)c1 (stereo unspecified)	1548	.	.	3	10	1	12	0
Cc1nc2nc(C)c(CCC(=O)NC(C)c3ccc4c(c3)OCCO4)c(C)n2n1 (stereo unspecified)	1596	3	.	2	10	-1	3	-1
Cc1nc2sc3c(c2c(=N)n1N)CC(C)(C)OC3	1654	.	.	1	12	13	3	3
Cc1oc2c(O)c(O)ccc2c(=O)c1-c1cnn(-c2ccccc2)c1	1629	.	-0.11	-2	70*	-1	15	2
O=C(NCCN1CCOCC1)c1ccccc1[N+](=O)[O-]	1535	.	3.1*	1	-13	3	10	5
Cc1ccc(-c2nc3ccccc3s2)cc1NC(=S)NC(=O)/C=C/c1ccco1	1490	.	.	0	-1	-3	-1	2
C[C@H](NC(=O)NC1CCCc2ccccc21)C(=O)O (stereo partly specified)	1507	.	.	6	12	4	-2	8
O=C(NCc1ccccn1)c1cccc([N+](=O)[O-])c1	1526	.	.	-2	10	0	1	0
O=C(O)c1ccccc1-c1ccccc1C(=O)NCCCO	1582	.	.	4	-16	-2	10	10
CCOC(=O)N1CCN(C(=O)Cc2ccsc2)CC1	1605	-20	-0.043	-4	8	8	6	6
CCC(C)NC(=O)C1CC(c2ccc(OC)cc2)=NO1 (stereo unspecified)	1878	-13	.	4	9	-3	-1	10
Cc1ccccc1NC(=O)Cc1c(O)c2ccccc2[nH]c1=O	1575	.	.	-2	10	9	2	10
CN1C(=O)/C(=C/c2ccccc2OCc2ccccc2F)NC1=S	1700	.	.	-8	26	-3	0	-8
O=C(NC(=S)NC1CCSC1=O)c1ccccc1Cl (stereo unspecified)	1617	.	.	2	7	10	1	5
COc1ccc(S(=O)(=O)N2CCN(CC(=O)Nc3cc(C(F)(F)F)ccc3Cl)CC2)cc1	1518	-2	.	-5	24	7	5	7
O=C(CSc1nccn1-c1ncc(C(F)(F)F)cc1Cl)c1ccc(Cl)cc1	1443	.	.	-3	-6	-7	3	3
CCOC(=O)NC(CC(=O)O)c1ccc(OCC)cc1 (stereo unspecified)	1520	-48	.	8	4	-3	-1	-11
COC(=O)C1(S(=O)(=O)c2ccc(C)cc2)CCOCC1	1488	.	.	2	17	-7	7	4
COc1ccc(OCCSc2nnnn2C2CCCCC2)cc1	1434	-8	-0.72	-1	21	-7	3	-9
COC(=O)c1ccc2c(c1)C(C)(C)C(/C=C/c1ccc(OC)c(OC)c1OC)=[N+]2C	1556	.	.	4	26	0	0	3
O=C(Cc1ccccc1)N(c1ccc(F)cc1)C1C=CS(=O)(=O)C1 (stereo unspecified)	1681	-25	-0.35	6	12	6	-11	11
CCn1c2ccccc2c2cc(NC(=O)C(C)C)ccc21	1424	.	.	-2	16	5	6	-2
COc1ccccc1-n1c(CNC(=O)c2ccco2)nnc1SCC(=O)Nc1ccc(F)cc1	1623	3	.	-3	-2	3	3	1
Cc1nc(NC(=O)c2ccccc2)sc1-c1csc(Nc2cccc(F)c2)n1	1480	.	.	8	27	9	1	9
CCC(C)C(NS(=O)(=O)c1ccc(C)cc1)C(=O)Oc1ccc2c3c(c(=O)oc2c1)CCC3 (stereo unspecified)	1529	.	-1.5	0	18	1	9	0
Cn1c(CCN2CCN(c3ccccc3)CC2)nc2cc(NC(=O)c3ccco3)ccc21	1422	-28	.	-12	13	4	-3	3
Cc1ccc(/C=C2/NC(=O)N(Cc3ccccc3)C2=O)s1	1449	.	.	3	0	-5	4	-14
CCOc1ccccc1N1CN(CC)CNC1=S	1576	.	.	-3	10	-3	-3	-4
C=CCNc1cnn(-c2ccc(C)cc2)c(=O)c1Cl	1570	.	.	6	15	6	4	-3
Cc1ccc2c(c1)SC1=NC(c3ccccc3)(C(F)(F)F)NC(=O)N12 (stereo unspecified)	1250	.	.	1	4	-8	24	2
Cc1c(NC(=O)OCCNC(=O)Nc2ccccc2)sc(=S)n1C	1559	-75	.	2	18	9	-4	3
CC(CC(=O)NC1CCCC1)c1ccccc1 (stereo unspecified)	1535	.	.	-2	10	-5	4	-1

Among those listed so far, these contain a halogen.
SMILES	SRC2 TRFRET art	S1P3 antagonist	ROMK primary	PPARg SRC1 recr	Diaphorase inh	PPARg SRC2 recr	G6PDH counter	PPARg SRC-3 ag
CCCCN1C2=C(C(=O)CCC2)C(c2ccc(Cl)c(Cl)c2)C2=C1c1ccccc1C2=O (stereo unspecified)	1343	.	.	-5	22	1	14	-3
O=C(CNS(=O)(=O)c1ccc(Br)cc1)N1CCOCC1	1483	.	.	-3	7	2	6	5
COc1cc(NS(C)(=O)=O)c(OC)cc1NC(=O)c1cccc(F)c1	1368	6	.	6	16	3	4	-7
O=S(=O)(c1cc(-c2nc3ccccc3s2)ccc1Cl)N1CCOCC1	1472	.	.	3	-2	6	5	-11
Cc1ccccc1OCC(=O)NNC(=O)Nc1ccc(Cl)cc1	1552	.	.	2	16	4	8	10
CS(=O)(=O)N1N=C(c2ccc(Br)cc2)CC1c1ccc2c(c1)OCO2 (stereo unspecified)	1649	.	.	1	16	9	10	15
CN1C(=O)/C(=C/c2ccccc2OCc2ccccc2F)NC1=S	1700	.	.	-8	26	-3	0	-8
O=C(NC(=S)NC1CCSC1=O)c1ccccc1Cl (stereo unspecified)	1617	.	.	2	7	10	1	5
COc1ccc(S(=O)(=O)N2CCN(CC(=O)Nc3cc(C(F)(F)F)ccc3Cl)CC2)cc1	1518	-2	.	-5	24	7	5	7
O=C(CSc1nccn1-c1ncc(C(F)(F)F)cc1Cl)c1ccc(Cl)cc1	1443	.	.	-3	-6	-7	3	3
O=C(Cc1ccccc1)N(c1ccc(F)cc1)C1C=CS(=O)(=O)C1 (stereo unspecified)	1681	-25	-0.35	6	12	6	-11	11
COc1ccccc1-n1c(CNC(=O)c2ccco2)nnc1SCC(=O)Nc1ccc(F)cc1	1623	3	.	-3	-2	3	3	1
Cc1nc(NC(=O)c2ccccc2)sc1-c1csc(Nc2cccc(F)c2)n1	1480	.	.	8	27	9	1	9
C=CCNc1cnn(-c2ccc(C)cc2)c(=O)c1Cl	1570	.	.	6	15	6	4	-3
Cc1ccc2c(c1)SC1=NC(c3ccccc3)(C(F)(F)F)NC(=O)N12 (stereo unspecified)	1250	.	.	1	4	-8	24	2

Screening results (PubChem BioAssay)
